# Assay outcomes from PubChem.
# Measles inh: inhibitors of measles virus growth in infected cells | infected Vero cells, GFP fluorescence, 64 h; active compounds read low | z-score (no concentration beside the values) | 33,000 tested, 0.1% active;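 active = z-score under -3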;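 note: score is relative to mean and SD of the compound wells of a plate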
# Active calls of the source: *. These rows are one share of the data, so the mix of outcomes need not match the whole.
Structure,Measles inh
Cc1ccc(-c2nnc3c4c5c(sc4ncn23)CC(C)CC5)cc1 (configuration not stated),1.37
CCOC(=O)C1NN=C(C(=O)c2ccccc2)C1c1ccc(Cl)cc1 (configuration not stated),-0.56
COc1ccc(OC)c(C2NC(=O)N(C)C(C)=C2C(=O)OCc2ccccc2)c1 (configuration not stated),1.1
CCN1CCN(CC(=O)N2CCCc3c2c(=O)oc2ccc(OCc4ccccc4)cc32)CC1,-0.46
COc1ccc(NC(=O)c2cnn3c(C(F)(F)F)cc(-c4cccs4)nc23)c(OC)c1,-0.41
CSc1nc2ccc([N+](=O)[O-])cc2o1,-0.92
O=C(CCCn1c(=O)[nH]c2ccc(Br)cc2c1=O)N1CCc2ccccc2C1,-2.26
Cc1ccc(OCC(=O)NCCCN2CCOCC2)cc1,2.27
COc1cccc2cc(-c3cn(-c4cccc(Cl)c4)c(=S)[nH]3)c(=O)oc12,-0.5
C=CCn1c(SCC(=O)Nc2ccc(Cl)cc2)nc2sc3c(c2c1=O)CCCC3,-0.42
Cc1cccc(NC2=CC(=NS(=O)(=O)c3cccs3)c3ccccc3C2=O)c1,0
COc1ccc(Cl)cc1NC(=O)C1c2cc(OC)c(OC)cc2C(=O)N(C)C1c1ccccc1F (configuration not stated),-0.65
COc1ccc(-c2c(N)n[nH]c2C)cc1OC,-1.71
CCOC(=O)c1cc(CC)sc1NC(=O)c1ccc(N2CCN(CC)CC2)c([N+](=O)[O-])c1,0
CCCCNc1ncnc2c1cnn2-c1cccc(C)c1,-1.13
CCCCSc1nc2c(cnn2-c2ccc(C)c(C)c2)c(=O)[nH]1,-0.29
CCC1Oc2ccc(Cl)cc2N(CC(=O)NCCOC)C1=O (configuration not stated),-1.98
CCOC(=O)c1cc2c(=O)n3cc(C)ccc3nc2n(Cc2cccnc2)c1=N,-0.11
CCOC(=O)C1Sc2[nH]c(=O)sc2C(c2ccc(Cl)cc2)C1C(=O)OCC (configuration not stated),-0.63
COc1cccc(C(=O)N2CCN(c3nc4ccc([N+](=O)[O-])cc4s3)CC2)c1,1.23

# 3 of the compounds above, as labelled records:
Cc1cccc(NC2=CC(=NS(=O)(=O)c3cccs3)c3ccccc3C2=O)c1
- Measles inh: 0
COc1ccc(Cl)cc1NC(=O)C1c2cc(OC)c(OC)cc2C(=O)N(C)C1c1ccccc1F (configuration not stated)
- Measles inh: -0.65
COc1ccc(-c2c(N)n[nH]c2C)cc1OC
- Measles inh: -1.71

# (further entries)
Structure,Measles inh
O=C(COC(=O)c1ccccc1O)c1ccc(Br)cc1,-0.73
CC(=O)c1ccc(NC(=O)C2CCC(CNS(=O)(=O)c3cccs3)CC2)cc1 (configuration not stated),1.26
COc1ccc(NC(=O)CN2CCN(CC(=O)Nc3ccccc3Cl)CC2)cc1,-0.64
COc1ccc(-n2c(SCC(=O)Nc3nccs3)nc3c(sc(=S)n3-c3ccccc3)c2=O)cc1OC,0.05
Cc1cc2c(c(C)nn2-c2ccccc2)c(=O)o1,-0.52
CCOC(=O)Cc1csc(NC(=O)CCN2C(=O)c3ccccc3C2=O)n1,0.54
Cc1cc(Cc2ccc(N)c(C)c2)ccc1N,-0.06
Cc1ccccc1Nc1cc(C(=O)NCC2CCCO2)c2ccccc2n1 (configuration not stated),-0.71
O=C(NCc1cccs1)C1CCC(CNS(=O)(=O)c2cccs2)CC1 (configuration not stated),1.46
Cc1cccc(OCC(=O)Nc2sc3c(c2C(N)=O)CCCC3)c1,-0.37
CCOC(=O)CNC(=O)c1c(-c2ccccc2)noc1C,0.9
CCC(C)NC(=O)CCCCCn1c(=S)[nH]c2ccccc2c1=O (configuration not stated),-0.01
Cc1oc2ccc(OCC#N)cc2c1C(=O)OC(C)C,0.57
CC(=O)Nc1ccccc1C(=O)C(=O)Nc1ccc(C(=O)NC2CCCCC2)cc1,0.19
COc1ccc(CCNC(=O)C2CCCN(S(=O)(=O)N3CCCCCC3)C2)cc1OC (configuration not stated),-0.62
COc1cccc(N2CCN(C(=O)CCn3c(=O)[nH]c4cc(OC)c(OC)cc4c3=O)CC2)c1,0.44
CCn1c(SCC(=O)N2CCc3ccccc32)nc2c(c1=O)SC(C)C2 (configuration not stated),-0.1
COc1ccc(CSc2nnc(C)c(=O)[nH]2)cc1,-0.08
Cc1ccc(C2C3=C(CCCC3=O)NC3=C2C(=O)c2ccccc23)cc1 (configuration not stated),-0.21
CCSCCOC(=O)C1=C(C)NC2=C(C(=O)CC(c3cccs3)C2)C1c1coc2ccc(C)cc2c1=O (configuration not stated),-0.14

# (cont.)
Structure,Measles inh
COc1cc(C(=O)Nc2ccc(Cl)c(-c3nc4cc(C)cc(C)c4o3)c2)cc(OC)c1OC,-0.41
O=S1(=O)N=C(Oc2ccc(Cl)cc2)c2ccccc21,-0.19
O=C(c1cc(S(=O)(=O)N2CCCCC2)ccc1F)N1CCOCC1,0.68
O=C(Nc1ccc2oc(-c3ccccc3Br)nc2c1)c1cc([N+](=O)[O-])ccc1Cl,-1.11
c1ccc(Oc2cccc(CSc3nc4ccccc4o3)c2)cc1,0.21
Cc1ccc(C2C(C(=O)c3ccc(C)o3)=C(O)C(=O)N2Cc2cccnc2)cc1 (configuration not stated),-1.03
CCOC(=O)c1sc2nc(SCC#N)n(Cc3ccc(F)cc3)c(=O)c2c1C,1.54
Cc1ccc2nc(-c3ccc(NC(=O)C(F)(F)F)cc3)sc2c1,0.07
O=C(NCc1ccco1)c1ccc2c(c1)ncn2C1CCCC1,0.83
CCCOC(=O)COc1ccc2c3c(c(=O)oc2c1)CCCC3,-1
O=c1oc2cc(OCc3cc4c(cc3Cl)OCO4)ccc2c2c1CCC2,-2.09
CC(=O)N1CCc2cc(S(=O)(=O)NC(C(=O)O)c3ccccc3)ccc21 (configuration not stated),0.7
CCOC(=O)c1c(NC(=O)c2ccc(OC)c(OC)c2)sc(C)c1-c1ccccc1,-1.09
Cc1ccc(C2OC(=O)c3ccccc32)cc1 (configuration not stated),-1.08
CCOC(=O)C(N)CSC1CCCCO1 (configuration not stated),-0.02
CC1CCC(NC(=O)c2ccc(CS(=O)(=O)c3ccc(Cl)cc3)o2)CC1 (configuration not stated),0.87
CCCC(=O)Oc1ccc2c(=O)c(Oc3cc(C)cc(C)c3)coc2c1,0.44
CCc1nc(NCCC(C)C)c(C#N)c2c1COC(C)(C)C2,0.3
CCC(Sc1nc2cc3c(cc2c(=O)n1Cc1ccc(OC)cc1)OCO3)C(=O)Nc1ccc(Cl)cc1 (configuration not stated),1.2
Cc1ccc(OCC(=O)Nc2ccccc2C)cc1C,0.13

# Next section.
Structure,Measles inh
COc1ccccc1CNC(=O)C1CCCN(S(=O)(=O)c2ccc(Br)s2)C1 (configuration not stated),-0.41
CCOc1ccc(-n2c(-c3ccc(Br)cc3)c[n+]3c2CCCCC3)cc1,0.5
CN(Cc1ccccc1)C(=O)CN1C(=O)CSc2ccc(S(=O)(=O)N(C)C3CCCCC3)cc21,1.42
N#Cc1cc2c(N)c(C(=O)Nc3ccccc3Oc3ccccc3)sc2nc1N,-0.29
Cc1ccc(OCC(=O)N2CCN(C(=O)c3ccc(F)cc3)CC2)cc1,1.78
Nc1ccc(C=Cc2nc3ccccc3[nH]2)cc1,2.66
CCN(CC)c1ccc(NC(=O)C2CCC(C)(C(=O)O)C2(C)C)cc1 (configuration not stated),1.03
Cc1ccc(Nc2nnc(-c3ccc(N4CCOCC4)c([N+](=O)[O-])c3)s2)cc1Cl,0.07
CCOC(=O)Cc1csc(NC(=O)Cc2ccccc2)n1,0.76
CCOC(=O)C1=C(C)Nc2nc(SCc3ccccc3F)nn2C1c1ccc(C)cc1 (configuration not stated),-1.24
CCCOC(=O)C1=C(C)NC2=C(C(=O)CCC2)C1c1ccc(OC)c(OC)c1OC (configuration not stated),0.27
CC1CCCC(NS(=O)(=O)c2ccc(F)c(C(=O)Nc3cc(C(F)(F)F)ccc3Cl)c2)C1C (configuration not stated),0.24
CCOc1ccc(N2C(=O)CC(NCCc3cccc(F)c3)C2=O)cc1 (configuration not stated),0.87
CCCNC(=O)C(C)Sc1nc2nc(C)cc(C)n2n1 (configuration not stated),0.96
N#Cc1c(-c2ccc(Cl)cc2)cc(-c2cccs2)nc1SCc1ccncc1,-0.22
Clc1ccc(-c2nc3cnccn3c2NC2CCCCC2)cc1,2.24
CCn1c(SCC(=O)Nc2ccc(F)cc2)nc2c(c1=O)SC(C)C2 (configuration not stated),-0.54
COC(=O)C1=C(C)N=C2SCCC(=O)N2C1c1cccc(Oc2ccccc2)c1 (configuration not stated),0.29
CCCCOc1ccc(C(=O)N2C(=O)C(=O)c3ccccc32)cc1,0.29
CCOc1ccc2nc(SCC(=O)N3c4ccccc4C(C)=CC3(C)C)sc2c1,0.82

# An excerpt from above in order of their number in Measles inh, rising.
Structure,Measles inh
CCCCOc1ccc(C(=O)N2C(=O)C(=O)c3ccccc32)cc1,0.29
CCOC(=O)Cc1csc(NC(=O)Cc2ccccc2)n1,0.76
CCN(CC)c1ccc(NC(=O)C2CCC(C)(C(=O)O)C2(C)C)cc1 (configuration not stated),1.03

# More results
compound	Measles inh
Cc1cccc(N2CCN(C(=O)C3CCC(CNS(=O)(=O)c4cccs4)CC3)CC2)c1C (configuration not stated)	-0.99
COc1ccc(-c2cc(C(=O)Nc3cc(C)on3)no2)cc1	1.95
CN(C)CCNC(=O)c1ccc2c(c1)N(C)C(=O)c1ccccc1S2	1.05
CC1CCCN(C(=O)Nc2cccc(NC(=O)N3CCCC(C)C3C)c2)C1C (configuration not stated)	0.53
Clc1ccc(-n2cnnn2)cc1	-0.13
O=C1CC(c2ccc3c(c2)OCO3)c2cc3c(cc2N1)OCO3 (configuration not stated)	-0.52
Cc1ccccc1NC1=NS(=O)(=O)c2cc([N+](=O)[O-])ccc21	-1.28
COC(=O)C1=C(C)NC2=C(C(=O)CC(c3cccs3)C2)C1c1ccc(C)o1 (configuration not stated)	-0.13

# Following part:
compound	Measles inh
COC(=O)c1sc(=S)n(-c2ccccc2OC)c1N	-1.66
O=C(O)c1cc(Br)ccc1NS(=O)(=O)c1ccc(Br)c2nsnc12	-0.25
COc1ccccc1C=Nc1ccccc1Sc1c(C)n[nH]c1C	-0.4
O=C1CCCC2=C1C(c1ccccc1F)n1ncnc1N2 (configuration not stated)	-0.59
Oc1ccc(-c2nc3ccccn3c2Nc2ccc3c(c2)OCCO3)cc1	-0.04
CNC(=O)c1c(NC(=O)c2ccccc2F)sc2c1CCC(C(C)(C)C)C2 (configuration not stated)	-0.45
COc1cccc(C2C=C(c3cccs3)Nc3ncnn32)c1OC (configuration not stated)	-0.25
O=C(NC1CCCCCC1)c1ccc(-n2c(=S)[nH]c3ccccc3c2=O)cc1	0.07

# As entered above:
# Oc1ccc(-c2nc3ccccn3c2Nc2ccc3c(c2)OCCO3)cc1 in Measles inh = -0.04
# O=C(O)c1cc(Br)ccc1NS(=O)(=O)c1ccc(Br)c2nsnc12 in Measles inh = -0.25
# O=C(NC1CCCCCC1)c1ccc(-n2c(=S)[nH]c3ccccc3c2=O)cc1 in Measles inh = 0.07
# COc1ccccc1C=Nc1ccccc1Sc1c(C)n[nH]c1C in Measles inh = -0.4

# Continuation:
compound	Measles inh
Cc1cc2nnc(SCC(=O)O)n2c2ccccc12	0.43
CC1CCN(c2ccc(S(=O)(=O)N3CCC(C)CC3)cc2NS(=O)(=O)c2cccc(Cl)c2)CC1	0
Cc1ccc2c(c1)C(O)(C(C)C(=O)c1ccccc1)C(=O)N2 (configuration not stated)	0.59
O=[N+]([O-])c1cccc(NS(=O)(=O)c2ccccc2)c1	1.5
COc1ccccc1CNC(=O)c1cccn2c(=O)c3cc(Cl)ccc3nc12	0.02
CCOC(=O)c1cnc2cc(Cl)c(OC)cc2c1Nc1ccccc1OC	-0.37
O=C(C1CC1)N1CCc2cc(Br)cc(S(=O)(=O)NCc3ccccc3Cl)c21	-0.19
O=C(O)c1ccccc1NC(=O)C1CC=CCC1C(=O)O (configuration not stated)	1.01

# Seven entries already listed, sorted by molar mass, ascending:
compound	Measles inh
Cc1cc2nnc(SCC(=O)O)n2c2ccccc12	0.43
O=[N+]([O-])c1cccc(NS(=O)(=O)c2ccccc2)c1	1.5
Cc1ccc2c(c1)C(O)(C(C)C(=O)c1ccccc1)C(=O)N2 (configuration not stated)	0.59
COc1cccc(C2C=C(c3cccs3)Nc3ncnn32)c1OC (configuration not stated)	-0.25
CCOC(=O)c1cnc2cc(Cl)c(OC)cc2c1Nc1ccccc1OC	-0.37
COc1ccccc1CNC(=O)c1cccn2c(=O)c3cc(Cl)ccc3nc12	0.02
O=C(C1CC1)N1CCc2cc(Br)cc(S(=O)(=O)NCc3ccccc3Cl)c21	-0.19

# New compounds follow.
compound	Measles inh
CC1CCCC(NC(=O)c2cc(-c3ccncc3)nc3ccccc23)C1C (configuration not stated)	-1.23
CCN(CC)c1ccc(NS(=O)(=O)c2cccc3cccnc23)c(C)c1	1.32
N=C1N=C(N)C(Cc2ccccc2)S1 (configuration not stated)	-0.59
COCCN1C(=O)c2ccccc2C(C(=O)Nc2ccc(C)cc2Br)C1c1cn(C)c2ccccc12 (configuration not stated)	-0.2
CCSCCOC(=O)C1=C(C)NC2=C(C(=O)CCC2)C1c1cccc(OC)c1OC (configuration not stated)	-1.03
CCc1ccc(NC(=O)CSc2nccn2Cc2ccccc2)cc1	-0.34
COc1ccc(Cl)cc1NC(=O)c1cc(S(=O)(=O)NCc2ccc(F)cc2)ccc1F	0.69
COc1cccc(OC)c1C(=O)Nc1c2c(nn1-c1cccc(C)c1C)CS(=O)C2 (configuration not stated)	-0.15

# Later entries:
compound	Measles inh
C=CCNC(=O)C1CCCN(S(=O)(=O)N(CC)CC)C1 (configuration not stated)	0.09
C=CCC(Nc1cccc(Cl)c1)c1ccco1 (configuration not stated)	-1.05
O=C(NCc1ccco1)c1ccc2c(=O)n(Cc3ccco3)c(SCc3ccc([N+](=O)[O-])cc3)nc2c1	-0.4
COC(=O)c1ccccc1NC(=O)Cc1cn(C)c2ccccc12	-2.87
Cc1c(N=Cc2ccc(O)cc2)c(=O)n(-c2ccccc2)n1C	2.17
CN(CC(=O)Nc1cccc(F)c1)S(=O)(=O)c1ccc(Br)s1	1.58
CCc1ccc(C(=O)c2c[nH]c3ccc(OC)cc3c2=O)cc1	-1.07
O=C1c2cccc3c(N4CCOCC4)ccc(c23)C(=O)N1c1ccccc1O	4.69
COc1ccc(C(=O)Nc2cc(C(=O)N3CCc4ccccc4C3)ccc2N2CC3CC(C2)c2cccc(=O)n2C3)cc1 (configuration not stated)	1.58
COc1ccc(Cl)cc1N(C)C(=O)Cc1c(C(=O)O)[nH]c2ccc(Cl)cc12	-0.5
